From PubChem
Rce1 inhib: yeast Ras-converting enzyme inhibition; Q03530; yeast membranes, quenched prenylated peptide cleavage fluorescence; calls only; actives 0.27% (n = 290,000); AID 2563;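 active = fall in fluorescence gain of 50% or more versus controls, with final raw signal at or below 3038400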;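 also: plate controls were neutral control wells for no effect and wells lacking membranes for full effect; tested at 10 µM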
Target sequence (Q03530 whole entry, looked up): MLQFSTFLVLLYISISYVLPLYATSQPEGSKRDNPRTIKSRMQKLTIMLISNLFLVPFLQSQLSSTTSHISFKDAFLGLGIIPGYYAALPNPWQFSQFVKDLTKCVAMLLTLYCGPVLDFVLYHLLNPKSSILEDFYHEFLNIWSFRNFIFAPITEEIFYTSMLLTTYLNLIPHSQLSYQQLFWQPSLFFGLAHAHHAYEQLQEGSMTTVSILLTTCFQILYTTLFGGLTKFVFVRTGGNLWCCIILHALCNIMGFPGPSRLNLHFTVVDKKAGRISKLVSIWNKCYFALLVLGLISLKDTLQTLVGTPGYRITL
eIF4H inh: inhibitors of RNA binding by human eIF4H; Q15056; eIF4H fluorescence polarization binding assay; inhibition, % at 35 µM; actives 0.94% (n = 290,000);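 active = 50% or more with normal probe brightness, or confirmed in later tests; about a fifth of its hits are not listed in these tables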;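 also: calls also rest on retests at 20 µM and on dose response follow-up; 0% = protein and probe with vehicle and 100% = probe without protein; strong numbers were not always called active; many hits fall short of the cut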
Yeast UUG start: yeast start codon fidelity modulation; S. cerevisiae UUG-firefly luciferase reporter, luminescence/redox ratio; activity score, % at 18.7 µM; actives 0.13% (n = 350,000); AID 602363;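 active = replicate mean at a twofold rise or more, about +100% in these data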;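 also: firefly luciferase made from a UUG start codon reports start codon fidelity; reporter light over untreated wells divided by growth signal over untreated wells; some hits fall short of that in this replicate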
MT1-MMP act inh: MT1-MMP (human) activation inhibition; actives 0.061% (n = 360,000); P50281; GFP/RFP ratio change, % at 20 µM; HT1080 RFP-PRO-GFP cells, GFP/RFP ratio fluorescence, overnight; percent of plate control window, DMSO zero;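 active = GFP/RFP ratio change of at least 30% with cell ATP level not reduced by more than half and red fluorescence within 50% of control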; also: strong numbers were not always called active
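Read-out: GFP/RFP fluorescence ratio; Test system: RFP-PRO-GFP reporter HT1080 cells; Compound dosing: single-point 20 µM compound, 1% DMSO; Times: overnight compound exposure at 37 °C.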
CSC inhib: cancer stem cell inhibition. cancer stem cell-like cells viability, luminescence. inhibition, % at 7.5 µM. actives 1.1% (n = 300,000). AID 2717;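 active = mean at 75% or more and at least half the replicates too; tested in HMLE shEcad cells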;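 also: 0% = median of negative and 100% = median of positive control wells; the first replicate is given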
PABP FP inh: blocks human PABP binding to poly(A) RNA; P11940; fluorescence polarization; inhibition, % at 35 µM; actives 1% (n = 290,000); AID 2014;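 active = 50% or more with normal probe brightness, or confirmed in later tests; about a fifth of its hits are not listed in these tables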;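 also: calls also rest on retests at 20 µM and on dose response follow-up; controls were probe without protein and protein plus probe with vehicle; some compounds called inactive have numbers as strong as hits; many hits fall short of the cut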
Target sequence (P11940 whole entry, looked up): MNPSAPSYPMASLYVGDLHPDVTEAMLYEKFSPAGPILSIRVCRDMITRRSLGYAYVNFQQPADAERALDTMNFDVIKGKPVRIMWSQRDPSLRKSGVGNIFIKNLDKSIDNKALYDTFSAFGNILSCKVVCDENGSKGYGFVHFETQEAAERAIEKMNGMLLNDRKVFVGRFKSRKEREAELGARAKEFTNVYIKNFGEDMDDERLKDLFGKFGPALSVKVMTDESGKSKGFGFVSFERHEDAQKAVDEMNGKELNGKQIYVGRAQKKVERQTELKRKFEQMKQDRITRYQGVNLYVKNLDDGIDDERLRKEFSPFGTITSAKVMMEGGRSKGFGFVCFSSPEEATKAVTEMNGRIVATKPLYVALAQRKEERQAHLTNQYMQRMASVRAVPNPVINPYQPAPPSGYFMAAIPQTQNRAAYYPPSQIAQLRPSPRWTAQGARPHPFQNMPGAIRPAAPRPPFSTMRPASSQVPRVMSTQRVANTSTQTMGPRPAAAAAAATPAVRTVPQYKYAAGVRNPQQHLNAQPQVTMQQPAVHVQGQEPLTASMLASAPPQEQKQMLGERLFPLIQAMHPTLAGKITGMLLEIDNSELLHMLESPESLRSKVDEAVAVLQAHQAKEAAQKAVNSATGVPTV
HIV Env fusion: HIV envelope-mediated fusion inhibition. HeLa-JRFL Env/CEM21 cell fusion, luciferase. inhibition, % at 12.3 µM. actives 1.1% (n = 360,000). AID 651610;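 active = mean replicate inhibition score of at least 50 and every replicate individually at or above 50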;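 also: 0% = plate neutral controls and 100% = maraviroc near 300 nM; one replicate is shown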
eIF4H inh retest: second read-out of eIF4H inh, no call of its own (marks repeat the call); inhibition, %; compound at 20 µM; confirmation average;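 mean of two retest wells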
PABP FP inh retest: second read-out of PABP FP inh, no call of its own (marks repeat the call); inhibition, %; compound at 20 µM; confirmation repeats;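 mean of two retest wells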
MT1-MMP act inh RFP: also measured in MT1-MMP act inh; calls as there; RFP signal change, %; measured here: RFP expression control read;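 0 = vehicle wells; hits needed this value within 50% of zero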
The depositor's hits bear a star; i = inactive; nt = no result given; & = joins results of further samples. Rows are unselected. About 2.9% of those tested had a hit in this group.

SMILES	Rce1 inhib	eIF4H inh	Yeast UUG start	MT1-MMP act inh	MT1-MMP act inh RFP	CSC inhib	PABP FP inh	HIV Env fusion	others
c1ccc(-n2ncc3c2ncn2cnnc32)cc1	i	-2	-12	6	7	-2	3	nt
Cc1ccc(NC(=O)N2CCc3ccccc3C2)cc1C	i	-2	3	-1	2	-7	-7	-57
Cc1ccc(C(C(=O)NCc2ccco2)N(CC2CCCO2)C(=O)Cn2nnc3ccccc32)cc1 (stereo unspecified)	i	-5	-2	-2	-1	nt	-13	nt
Cc1[nH]c(C)c(S(=O)(=O)N(C)Cc2ccccc2)c1C(=O)N1CCCC1	i	-8	6	-2	4	-18	-6	3
O=[N+]([O-])c1c(Nc2ccc(O)cc2)cc(N2CCOCC2)c2nonc12	nt	-6	nt	0	-6	-2	3	36
COC(=O)c1ccc(-n2c(CCC(=O)O)ccc2-c2ccc(C)cc2)cc1	i	9	-18	-6	-7	-5	1	nt
COc1cccc(C(O)c2nc(-c3ccc(F)c(Cl)c3)cs2)c1 (stereo unspecified)	nt	nt	9	1	2	nt	nt	9
Cn1nc(C(C)(C)C)cc1C(=O)N1CCCCC1c1cc(C(=O)NCc2ccccc2)no1 (stereo unspecified)	nt	nt	23	-5	-21	nt	nt	-15
Cc1ccc(NC(=O)[C@@H]2O[C@H](CO)[C@H](O)[C@H](O)[C@H]2O)cc1C(F)(F)F	nt	nt	-29	-1	3	nt	nt	5
O=C(NC1CC1)C1CC(=O)N(c2ccc(F)cc2)C1 (stereo unspecified)	i	-4	nt	-1	0	6	12	7
COC(=O)C(C(=O)OC)c1ccc(N)cc1	i	-10	-15	1	7	-13	0	3
Cc1ccc(C(CC(=O)O)NC(=O)CCNC(=O)c2ccco2)cc1 (stereo unspecified)	nt	nt	-14	8	6	nt	nt	-21
CC(SC(=S)N1CCOCC1)C(=O)O (stereo unspecified)	i	-8	nt	-5	0	19	10	nt
CC(C)(C)c1ccc(CC(=O)N2CCC2(C)C(=O)Nc2ccc(F)cc2F)cc1 (stereo unspecified)	nt	nt	1	5	-12	nt	nt	40
NC(=O)C1CCN(c2ncnc3c(-c4ccccc4)nsc23)CC1	i	-4	-18	0	-8	0	4	-67
NNC(=O)COc1ccc(-c2n[nH]c(C(F)(F)F)c2-c2ccc(Br)cc2)c(O)c1	i	2	-18	2	3	69	0	22
Nc1cccc(-n2nnnc2CN2CCOCC2)c1	i	-10	-12	6	9	0	0	6
Cc1nccn1CC(O)Cn1c2ccccc2c2ccccc21 (stereo unspecified)	nt	-6	-17	9	3	6	2	nt
Cc1cc(C)nc(NC(=O)c2cccc(Cl)c2)n1	i	-1	-14	1	3	-13	5	-18
COc1ccc(S(=O)(=O)N2CCCCC2)cc1NC(=O)COc1ccccc1	i	nt	-7	1	-1	-1	nt	nt
O=c1[nH]c2ccccc2c(=O)n1Cc1ccccc1	i	-18	-6	-2	3	-12	1	18
O=C1OCC(c2ccccc2)=C1c1ccccc1[N+](=O)[O-]	i	-3	nt	0	0	-3	-10	2
Cc1ccc(SCCC(=O)N/N=C/c2ccncc2)cc1	i	-10	nt	1	2	8	33	12
O=C(Cc1ccccc1)NCC(=O)OCc1ccccc1F	i	4	-12	-1	1	1	9	-12
COc1ccc(Nc2ncnc3ccccc23)c(OC)c1	i	0	-37	-6	-10	-10	1	-6
CCOc1ccc(N=Nc2c(C)[nH]n(-c3ccccc3)c2=O)cc1	i	4	-12	2	2	-3	6	26
NC(=O)C1CCN(c2nc(-c3cccc(N)c3)cs2)CC1	nt	nt	-2	3	7	nt	nt	-121
O=C(NCCc1ccccc1)c1noc2c1CCCCC2	i	-7	-23	1	1	nt	-8	-108
O=C(O)c1sccc1S(=O)(=O)c1ccccc1	i	3	5	-1	2	-2	33	nt
COc1cccc(C(=O)O/N=C/c2ccc(Sc3ccc(C)cc3)nc2)c1	i	-4	-20	-3	-5	-10	1	nt
Cc1ccc(OCC(=O)OC(C)CN(C)Cc2ccccc2)cc1 (stereo unspecified)	i	12	-3	2	2	-1	4	3
COc1ccc(OC)c(S(=O)(=O)Nc2ccc(CC(=O)O)cc2)c1	i	-10	-20	-6	3	-3	-10	-62
Cc1ccc2nc(NCCNC(=O)c3ccccc3)c(C#N)cc2c1	i	0	-12	-1	-3	-3	4	7
CCOC(=O)C1CCCN(C(=O)c2cccc(OC(F)(F)F)c2)CC1 (stereo unspecified)	nt	nt	-8	5	4	nt	nt	11
CCOC(=O)c1cccc(NC(=O)Nc2ccc3c(c2)C(=O)OC3)c1	i	-3	-9	5	-4	-2	0	-9
C=CCN(C(=O)Nc1ccc2c(c1)nc(C)n2C)c1ccccc1	i	-1	nt	-2	3	-2	-5	16
COc1cccc(C(=O)Nc2nnc(-c3ccc(OC)cc3OC)s2)c1	i	0	-7	-2	0	2	5	-14
CN1CCN(c2ccccc2NC(=O)Cc2ccc(Cl)cc2)CC1	i	5	3	-5	-1	-3	-6	nt
COc1ccc(C2c3ccc(O)cc3Oc3ncn(Cc4ccco4)c(=N)c32)cc1OC (stereo unspecified)	i	40	-10	-20	0	26	8	17
COc1ccccc1C(C)NCC(=O)NCC(=O)Nc1ccc(F)c(F)c1F (stereo unspecified)	i	-9	nt	5	5	nt	15	-25
Cc1cccc(-n2c(SCC(=O)N3CC(=O)Nc4ccccc43)nc3ccccc3c2=O)c1C	i	-18	nt	-5	-8	nt	-22	29
CCC(C)c1ccc(NC(=S)Nc2ccc(OC)c(OC)c2)cc1 (stereo unspecified)	i	-10	nt	5	5	13	-6	nt
O=C(CSCc1c(F)cccc1Cl)NCc1ccncc1	i	-4	-8	3	2	-4	-6	9
CN(C)S(=O)(=O)c1ccc(N2CCCC2)c(C(=O)Nc2ccc(C(N)=O)cc2)c1	i	nt	nt	0	9	-8	nt	11
Cc1ccc(CNC(=O)c2ccccc2N(C)S(C)(=O)=O)cc1	i	2	nt	-4	1	-2	0	6
CCCn1c(C)cc(/C=C(\C#N)C(=O)OCC(=O)N(CC)c2c(N)n(Cc3ccccc3)c(=O)[nH]c2=O)c1C	nt	nt	-6	-3	1	nt	nt	-17
COc1ccc(N(Cc2cc3cc(OC)ccc3[nH]c2=O)S(=O)(=O)c2ccc(NC(C)=O)cc2)cc1	i	-11	-10	-25	-13	33	5	17
CCOC(=O)N/N=C/c1cn(CCCOc2ccccc2)c2ccccc12	i	0	-17	0	-15	22	-9	27

Already shown: an excerpt of the list.
SMILES	Rce1 inhib	eIF4H inh	Yeast UUG start	MT1-MMP act inh	MT1-MMP act inh RFP	CSC inhib	PABP FP inh	HIV Env fusion	others
COc1cccc(C(=O)O/N=C/c2ccc(Sc3ccc(C)cc3)nc2)c1	i	-4	-20	-3	-5	-10	1	nt
Cc1ccc(OCC(=O)OC(C)CN(C)Cc2ccccc2)cc1 (stereo unspecified)	i	12	-3	2	2	-1	4	3
COc1ccc(OC)c(S(=O)(=O)Nc2ccc(CC(=O)O)cc2)c1	i	-10	-20	-6	3	-3	-10	-62
Cc1ccc2nc(NCCNC(=O)c3ccccc3)c(C#N)cc2c1	i	0	-12	-1	-3	-3	4	7
CCOC(=O)C1CCCN(C(=O)c2cccc(OC(F)(F)F)c2)CC1 (stereo unspecified)	nt	nt	-8	5	4	nt	nt	11
CCOC(=O)c1cccc(NC(=O)Nc2ccc3c(c2)C(=O)OC3)c1	i	-3	-9	5	-4	-2	0	-9
C=CCN(C(=O)Nc1ccc2c(c1)nc(C)n2C)c1ccccc1	i	-1	nt	-2	3	-2	-5	16
COc1cccc(C(=O)Nc2nnc(-c3ccc(OC)cc3OC)s2)c1	i	0	-7	-2	0	2	5	-14
CN1CCN(c2ccccc2NC(=O)Cc2ccc(Cl)cc2)CC1	i	5	3	-5	-1	-3	-6	nt
COc1ccc(C2c3ccc(O)cc3Oc3ncn(Cc4ccco4)c(=N)c32)cc1OC (stereo unspecified)	i	40	-10	-20	0	26	8	17
COc1ccccc1C(C)NCC(=O)NCC(=O)Nc1ccc(F)c(F)c1F (stereo unspecified)	i	-9	nt	5	5	nt	15	-25
Cc1cccc(-n2c(SCC(=O)N3CC(=O)Nc4ccccc43)nc3ccccc3c2=O)c1C	i	-18	nt	-5	-8	nt	-22	29
CCC(C)c1ccc(NC(=S)Nc2ccc(OC)c(OC)c2)cc1 (stereo unspecified)	i	-10	nt	5	5	13	-6	nt
O=C(CSCc1c(F)cccc1Cl)NCc1ccncc1	i	-4	-8	3	2	-4	-6	9
CN(C)S(=O)(=O)c1ccc(N2CCCC2)c(C(=O)Nc2ccc(C(N)=O)cc2)c1	i	nt	nt	0	9	-8	nt	11
Cc1ccc(CNC(=O)c2ccccc2N(C)S(C)(=O)=O)cc1	i	2	nt	-4	1	-2	0	6

The list continues:
SMILES	Rce1 inhib	eIF4H inh	Yeast UUG start	MT1-MMP act inh	MT1-MMP act inh RFP	CSC inhib	PABP FP inh	HIV Env fusion	others
Cc1ccccc1N1CCN(C2CCCN(C(=O)CN3CCCC3=O)C2)CC1 (stereo unspecified)	nt	15	-7	-3	2	-3	8	-172
COc1cccc(-c2nc(CS(=O)(=O)CC(=O)NCCCOC(C)C)c(C)o2)c1	i	2	6	11	0	-18	0	18
O=C(CN1CCN(c2ccccc2O)CC1)Nc1ccccc1C(=O)NCCc1ccccc1	nt	nt	nt	3	-6	4	nt	-17
CC(C(=O)NCc1ccc2c(c1)OCO2)N1c2cccc3cccc(c23)S1(=O)=O (stereo unspecified)	i	60	nt	-4	-11	5	44	16	eIF4H inh retest=34;PABP FP inh retest=17
O=C(NC(=S)N1CCCCC1)c1cccs1	i	-10	nt	5	9	-1	-2	10
Cc1cc(C)n(CCCNCC(O)c2ccccc2)n1 (stereo unspecified)	i	-5	4	2&1	4&6	-12	2	6&-11
CCOC(CNC(=O)c1ccc(CNC(=O)c2ccc(OC)c(OC)c2)cc1)OCC	i	-2	nt	4	5	8	3	-3
COC(=O)c1ccc(N2CCOCC2)c(NC(=O)Nc2cccc(OC)c2)c1	i	-9	3	-2	3	-7	1	-16
COc1nc(C)nc(NC(=O)NS(=O)(=O)c2ccc(C)cc2)n1	i	-7	-21	-1	2	8	6	29
Cc1cc2ncn(C3CC(=O)N(Cc4ccc(N5CCCC5=O)cc4)C3=O)c2cc1C (stereo unspecified)	i	0	-12	1	2	2	-20	-2
CCCCCn1c(N)c(C#N)c2nc3ccccc3nc21	i	-7	-13	-25	2	19	2	nt
O=C1CCCCC1C(=O)c1ccccc1 (stereo unspecified)	i	-4	nt	nt	nt	-14	-8	12
O=C(NCc1ccccc1)C1(C(F)(F)F)C/C(=C/CCO)CCCO1 (stereo unspecified)	i	nt	11	1	6	-8	nt	-27
COC(=O)c1sc(NC(=O)c2oc3ccccc3c2C)nc1C	i	-21	6	3	5	21	0	nt
O=C(CC(=O)c1ccccc1)Nc1ccccn1	i	-6	-26	1	0	7	-6	-5
O=C(c1c[nH]c(C(=O)N2CCN(c3ccccc3F)CC2)c1)c1cccc(Cl)c1Cl	i	-8	-19	-21	-28	nt	-7	-36
Cc1cccc(CCNc2nc3ccccc3n3nnnc23)c1	i	6	-6	11	0	4	-13	22
Cn1ccnc1SCC(=O)NC1CC1	i	-1	nt	-3	-3	-9	-1	nt
COC(=O)/C(=C\Nc1ccc(Cl)cc1Cl)NC(=O)c1ccc(OC)cc1	i	-3	6	-17	-20	71	-1	-207
NS(=O)(=O)c1ccc(CNC(=O)C23CC4CC(CC(C4)C2)C3)cc1	i	-2	-12	-8	-8	-11	-4	-82
O=C(CCC(=O)N1CCN(c2ccccn2)CC1)c1cccs1	nt	nt	-12	-1	1	nt	nt	-3
